Chronic BCR inh = blocks chronic active B-cell receptor signaling; hit rate 0.05% among 340,000; Potency, µM (highest dose often 46.1 µM), without a hit: at the highest dose ratio change, negative = lower green/red ratio, most hits filed as inhibitors; ABC-DLBCL IkBa-CBG/CBR reporter, luminescence ratio, 4 h; active means well fitted inhibition curve with a large enough effect in the signal ratio, with a control signal flat, not every such curve was filed as active; inconclusive means small, poorly fitted or top-dose-only effect, or effect the other way, or a change in a side signal; the % refers to the signal ratio;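 further: potency means the concentration at half of the fitted maximal effect; plate controls were basal doxycycline-induced cells for no effect and cells given 10 µM MG132 for full effect; MG132 reads +100%, hits lower the ratio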
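TMD8 human ABC-DLBCL cells with doxycycline-inducible IκBα–green luciferase fusion and unfused red luciferase, in 0.5% FBS medium; compounds up to 46 uM, 4 h at 37C. Green/red luminescence ratio, filter-overlap corrected, fitted to concentration-response curves.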
GALK inhibitor = galactokinase (human) inhibition; P51570; Purified GALK, Kinase-Glo residual ATP luminescence; Potency, µM (series often up to 57.5 µM), for inactives: top-dose activity change, negative = inhibition, actives largely listed as inhibitors; hit rate 0.007% among 270,000; AID 1868; further: potency means the concentration at half of the fitted maximal effect
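Luminescence from leftover ATP (Ultra-Glo luciferase/luciferin) served as read-out after a 1 h room-temperature reaction of 5 nM GALK with 35 uM ATP and 100 uM galactose.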
hERG WT inh = blocks the wildtype human KCNH2 potassium channel. Q12809. U2OS, BacMam KCNH2, thallium flux FluxOr; hits give low values. activity change, % at 1.84 µM. hit rate 0.37% among 340,000;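 active means maximum activity change below -70%; inconclusive means maximum activity change between -70% and -50%; inactive means maximum activity change above -50%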
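U2OS cells transduced with wild-type KCNH2 virus are loaded with FluxOr dye for 45 min, and thallium flux is measured in kinetic reads before and after stimulation buffer. Rate constants are normalized to DMSO controls.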
B2AR arrestin = beta2AR (human) beta-arrestin recruitment activity; P07550; beta-arrestin recruitment to beta2AR, cell-based reporter; Potency, µM (series often up to 46.1 µM), inactives show at the highest dose activation, usual class: activators; hit rate 0.02% among 330,000; AID 492947;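 further: potency means the concentration at half of the fitted maximal effect; 0% = DMSO controls and full agonism = EC100 isoproterenol or metaproterenol; nearly all actives have a fitted effect of over 65% in size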
Target sequence (P07550 whole entry, looked up): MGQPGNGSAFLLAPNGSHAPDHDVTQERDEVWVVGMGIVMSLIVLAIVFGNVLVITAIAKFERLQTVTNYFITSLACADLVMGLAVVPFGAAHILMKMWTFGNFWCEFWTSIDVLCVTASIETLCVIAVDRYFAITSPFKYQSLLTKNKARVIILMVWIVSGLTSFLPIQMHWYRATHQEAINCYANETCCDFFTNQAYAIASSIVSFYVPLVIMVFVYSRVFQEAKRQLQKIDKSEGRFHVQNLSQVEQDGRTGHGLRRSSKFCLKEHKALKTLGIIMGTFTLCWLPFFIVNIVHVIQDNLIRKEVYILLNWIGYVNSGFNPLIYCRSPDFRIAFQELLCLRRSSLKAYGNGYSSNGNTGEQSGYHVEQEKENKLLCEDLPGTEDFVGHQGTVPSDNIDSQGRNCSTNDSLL
USP2a block = USP2a (human) protease inhibition; USP2 core, Ub-CHOP2 coupled fluorogenic reporter, 485/531; Potency, µM (highest dose often 38.3 µM), inactives show top-dose activity change, negative = inhibition, usual class: inhibitors; hit rate 0.01% among 330,000; AID 463254;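 further: potency means the concentration at half of the fitted maximal effect; plate controls were DMSO wells for no effect and full inhibition by NEM control for full effect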
Target sequence (O75604 whole entry, looked up): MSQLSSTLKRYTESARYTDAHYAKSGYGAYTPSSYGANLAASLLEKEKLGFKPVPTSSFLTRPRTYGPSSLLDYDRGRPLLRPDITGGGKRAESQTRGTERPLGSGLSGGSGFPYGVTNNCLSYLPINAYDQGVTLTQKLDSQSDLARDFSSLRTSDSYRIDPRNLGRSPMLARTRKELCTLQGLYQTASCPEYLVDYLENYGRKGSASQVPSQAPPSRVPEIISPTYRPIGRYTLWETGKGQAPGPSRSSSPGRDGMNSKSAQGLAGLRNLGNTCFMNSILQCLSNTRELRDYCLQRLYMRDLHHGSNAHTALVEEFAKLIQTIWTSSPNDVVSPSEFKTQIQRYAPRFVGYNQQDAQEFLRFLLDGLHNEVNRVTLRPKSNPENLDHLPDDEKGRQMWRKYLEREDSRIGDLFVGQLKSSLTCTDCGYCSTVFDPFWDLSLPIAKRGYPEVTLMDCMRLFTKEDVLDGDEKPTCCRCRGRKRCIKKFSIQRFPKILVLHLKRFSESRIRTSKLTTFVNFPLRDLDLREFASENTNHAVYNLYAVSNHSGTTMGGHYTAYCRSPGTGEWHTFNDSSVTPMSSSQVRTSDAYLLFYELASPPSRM
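Cell-free coupled assay: 10nM USP2 core preincubated 30min RT with compound in Tris-HCl pH 8.0/CaCl2/CHAPS buffer, then 25nM Ub-CHOP2 and 25nM reporter substrate; fluorescence (Ex 485/Em 531) read after 60min RT, normalized to NEM inhibition, concentration-response curves fitted.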
Eya2 phos inh = Eya2 (human) phosphatase inhibition | O00167 | recombinant Eya2, OMFP fluorescence dephosphorylation (OMFP is methylfluorescein phosphate) | Potency, µM (highest dose often 76.9 µM), for inactives: at the highest dose activity, negative = inhibition, usual class: inhibitors | hit rate 0.006% among 330,000 | AID 488837; further: potency means the concentration at half of the fitted maximal effect
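Eya2 protein (added as 0.2 uM solution) was preincubated with compound for 10 min at ambient temperature in 50 mM HEPES pH 7.5, 50 mM NaCl, 5 uM MgCl2, 0.05% BSA, 1 mM DTT. OMFP (added at 50 uM) then reacted 10 min; fluorescence read at 485/525 nm.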
KCNH2 3.1 block = KCNH2 3.1 (human) potassium channel inhibition; hit rate 0.95% among 340,000; activity change, % (tested at about 1.8 µM); U2OS KCNH2 3.1, thallium flux FluxOr; hits give low values; AID 720553;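 active means maximum activity change below -70%; inconclusive means maximum activity change from -70% to -50%; inactive means maximum activity change above -50%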;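 further: thallium influx rate constant from kinetic fluorescence after stimulation buffer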
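FluxOr-based Tl+ influx in U2OS cells transduced with KCNH2 3.1 virus; rate constants normalized to DMSO controls.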
FBPA coupling cs = counter-screen for Giardia aldolase inhibitors: coupling enzyme system; coupling enzyme system counterscreen, AmpLite Red fluorescence; activity change, negative = inhibition, % at 58.2 µM, hits read low; hit rate 0.67% among 290,000; AID 2472; in the data active means activity change below about -30%
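Fluorescence at 525 nm excitation and 598 nm emission measured inhibition of the coupled detection system without aldolase. Compounds (at 57.5 uM final) were preincubated 10 min at room temperature with coupling enzyme reagent before a 20 min substrate/AmpLite Red step.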
uPA surface inh = blocks generation of uPA at the cell surface; Potency, µM (top dose mostly 38.3 µM), for inactives: top-dose activity change, negative = inhibition, most hits filed as inhibitors; cell surface uPA generation assay, qHTS; hit rate 0.31% among 330,000; active means well fitted inhibition curve with a large enough effect; inconclusive means small, poorly fitted or top-dose-only effect; inactive means no such curve, though single readings can be large or run the other way; tested in mouse RAW 264.7 cells; further: potency means the concentration at half of the fitted maximal effect; nearly all actives have a fitted effect of over 55% in size
Giardia kill = Giardia lamblia killing; Giardia lamblia trophozoite viability; activity change, % at 7.66 µM, hits read low; hit rate 0.15% among 340,000; in the data active means activity change below about -80%; inconclusive means between about -30% and that limit;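 further: parasites exposed to compound for two days anaerobically before the ATP read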
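Giardia lamblia trophozoites (100 cells/well) were incubated with compounds for 48 h at 37 deg C under anaerobic conditions. Viability was read as ATP content by one-step luminescence after 15-30 min at room temperature.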
Active calls of the source: *; ? = inconclusive; · = not tested or not shown; [ ] = another dose, or the depositor's remark. Unless noted, the call rests on the fitted dose curve; in most records, active means well fitted curve in the direction sought with a large enough effect; inconclusive means small, poorly fitted or top-dose-only effect, or another doubt; inactive means no such curve, though single readings can be large; an effect the other way counts as inactive or inconclusive. Unless noted, on the % scale 0 is the no-effect control and ±100 the full control effect.

SMILES | Chronic BCR inh | GALK inhibitor | hERG WT inh | B2AR arrestin | USP2a block | Eya2 phos inh | KCNH2 3.1 block | FBPA coupling cs | uPA surface inh | Giardia kill
Cc1ccc(C)c2[nH]c(=O)c(CN(CCCN(C)C)C(=O)NCc3ccccc3)cc12 | -3% | 8% | 2 | -0.2% | -1% | -1% | 2 | -1 | 4% | -7
O=C(C1CCN(S(=O)(=O)c2cccc3cccnc23)CC1)N1CCN(c2ccccc2)CC1 | 3% | 0% | -28 | -0.6% | 0% | 4% | 11 | 2 | 0% | -5
CCOC(=O)CSc1nnc(CNc2ccc(Cl)cc2)n1-c1ccccc1 | ? | 2% | 12 | -0.9% | -4% | 3% | 5 | -11 | 0% | 0
Cc1ccc(S(=O)(=O)NCC(C)NS(=O)(=O)c2ccccc2[N+](=O)[O-])cc1 (stereo not given) | 0% | -1% | -4 | -0.4% | 1% | 5% | -16 | -1 | 2% | -25
CC(C)(C)NC(=O)COC(=O)c1cncc(Br)c1 | 1% | 2% | 2 | -0.6% | 1% | -19% | 4 | 1 | 1% | 4
CCOc1ccccc1C(=O)N(Cc1sccc1C)C1CCS(=O)(=O)C1 (stereo not given) | -1% | -2% | -9 | 0.3% | -1% | 0% | -15 | -1 | -1% | 32[activator]
CC(=O)N1c2c(cc(Br)cc2S(=O)(=O)NCc2cccnc2)CC1C (stereo not given) | 0% | 2% | -1 | -0.9% | ? | 4% | -2 | 2 | -2% | -9
Cn1c(-c2ccccc2)c(C(=O)CCl)c2ccccc21 | ? | 6% | -1 | -0.2% | -11% | 2% | 7 | 10 | -17% | -12
Cc1c(C(=O)NCc2cccnc2)oc2ccc(S(=O)(=O)N3CCCC(C)C3)cc12 (stereo not given) | · | -5% | -5 | · | · | · | -2 | 1 | -5% | 2
CCOC(=O)c1sc(-c2ccccc2)nc1C | ? | -1% | -21 | -0.8% | -1% | 1% | -13 | 0 | -5% | -5
O=C1OCCC1Sc1nnnn1-c1ccccc1 (stereo not given) | 9% | 2% | -10 | -0.7% | -1% | -2% | 2 | · | -2% | -21
Cc1nc2ccccc2n1CCOc1ccccc1 | 1% | -7% | 44 | -1.6% | 3% | 2% | -1 | -1 | -7% | 9
C/C(Cc1ccccc1)=N\NC(=O)CNC(=O)c1ccccc1Br | -5% | 0% | 5 | -1.2% | 3% | -19% | 2 | 1 | -4% | 2
COc1ccc(CCNC(=O)C2CC(=O)N(c3ccc(F)cc3)C2)cc1OC (stereo not given) | -1% | 2% | 0 | 0.0% | -1% | -2% | 14 | 6 | · | -9
Fc1ccc(/C=N/NC(=S)Nc2cccnc2)cc1F | ? | 0% | -9 | -0.4% | 2% | 23% | 17 | 6 | -19% | -19

Compound profiles (already shown).
CCOC(=O)c1sc(-c2ccccc2)nc1C is listed as Chronic BCR inh: ?; GALK inhibitor: -1%; hERG WT inh: -21; B2AR arrestin: -0.8%; USP2a block: -1%; Eya2 phos inh: 1%; KCNH2 3.1 block: -13; FBPA coupling cs: 0; uPA surface inh: -5%; Giardia kill: -5
COc1ccc(CCNC(=O)C2CC(=O)N(c3ccc(F)cc3)C2)cc1OC (stereo not given) is listed as Chronic BCR inh: -1%; GALK inhibitor: 2%; hERG WT inh: 0; B2AR arrestin: 0.0%; USP2a block: -1%; Eya2 phos inh: -2%; KCNH2 3.1 block: 14; FBPA coupling cs: 6; uPA surface inh: ·; Giardia kill: -9

Next records
SMILES | Chronic BCR inh | GALK inhibitor | hERG WT inh | B2AR arrestin | USP2a block | Eya2 phos inh | KCNH2 3.1 block | FBPA coupling cs | uPA surface inh | Giardia kill
C=CCn1c(SCC(=O)N2CCc3ccccc3C2)nnc1-c1ccncc1 | 3% | 0% | -3 | 0.0% | 3% | 3% | -4 | 1 | -5% | -1
Cc1cccc(-n2c(CNC(=O)c3ccccc3)nnc2SCC(=O)Nc2nccs2)c1 | 9% | 0% | -6 | 0.3% | 1% | 17% | -3 | 1 | 1% | -16
Cc1cccc(C)c1NC(=O)C(C)Sc1nnc(C)n1CC1CCCO1 (stereo not given) | 1% | 14% | -1 | -0.2% | 0% | -9% | 14 | 0 | -3% | 6
CCOC(=O)C1=C(C)OC(N)=C(C#N)C1c1ccc(O)c(OC)c1 (stereo not given) | 12% | 4% | -16 | 0.2% | 1% | 16% | -6 | 2 | -2% | -18
COCCNC(=O)c1onc(CSc2cccc(C)c2)c1C(=O)O | ? | -1% | -5 | 0.9% | 3% | 19% | -2 | 8 | 7% | 2
C=C(C)CSc1[nH]c(=O)cc(C)c1C#N | 1% | 3% | -3 | -0.5% | 1% | 7% | 2 | 6 | 5% | -28
CCCNC(=O)c1cccc(Cn2cc(Br)c([N+](=O)[O-])n2)c1 | -6% | · | -20 | -0.5% | 2% | 1% | -10 | 3 | -6% | -27
Cn1c(=O)n(CC(=O)N2CCOCC2)c2ccccc21 | -21% | -1% | 12 | -0.7% | 0% | -14% | -1 | 0 | 4% | -18
Cc1cccc(NC(=S)N2CCCC2)c1 | 3% | 5% | -7 | 0.5% | 2% | 9% | 24 | 3 | 1% | 4
CCC1Oc2ccccc2N(CC(=O)N2CCOCC2)C1=O (stereo not given) | 5% | 14% | 9 | 0.1% | -1% | 10% | 11 | 2 | 1% | 19
COCCN1Cc2cccc(C(=O)Nc3cccnc3)c2C1=O | 2% | -2% | 1 | 0.0% | 2% | 3% | -1 | 0 | -8% | -11
CC(NC(=O)c1ccc(Br)o1)C1CCCO1 (stereo not given) | -2% | 0% | -17 | -0.5% | -6% | 0% | -15 | · | 6% | -9
CC(=O)NC(NC(=S)Nc1cccc(Br)c1)C(Cl)(Cl)Cl (stereo not given) | -10% | 1% | -6 | 0.5% | 2% | 10% | 8 | 0 | -4% | -17
CCC(C)NC(=O)c1ccc(C2SCC(=O)N2Cc2ccccc2)cc1 (stereo not given) | ? | 1% | -3 | -0.5% | 2% | 6% | 0 | -1 | 4% | -14
CC1C(=O)N(Cc2ccc([N+](=O)[O-])cc2)c2ccccc2N1C(=O)C1CC1 (stereo not given) | 1% | -2% | 5 | -0.3% | 2% | -4% | -2 | -2 | -1% | 6
Cc1ccc(NC(=O)C2CCN(S(=O)(=O)c3ccc(F)cc3)CC2)cc1 | 15% | 1% | -3 | -0.2% | 1% | -19% | 1 | 2 | 4% | 0
N#Cc1c(NC(=O)CN2CCN(S(=O)(=O)c3ccc4c(c3)OCCO4)CC2)sc2c1CCC2 | -11% | -2% | 0 | -0.1% | -2% | 10% | -3 | 1 | 2% | -3
O=C(/C=C/c1ccccc1)Nc1cc(C(=O)O)cc(C(=O)O)c1 | 1% | 2% | 2 | -0.7% | 3% | 3% | 3 | 3 | -3% | -23
COc1ccc(/C=N/NC(=O)COc2cc(C)cc(C)c2)cc1COC(C)=O | 0% | · | 9 | -0.4% | 3% | -6% | -8 | 5 | 1% | 13
Cc1sc2ncn(CC(=O)N3CCN(c4ccccn4)CC3)c(=O)c2c1S(=O)(=O)N1CCCCC1 | 2% | 10% | 3 | -0.2% | 0% | -10% | 8 | 3 | 1% | -23
CC(OC(=O)c1nsc(Cl)c1Cl)C(=O)NCc1ccco1 (stereo not given) | -1% | 0% | -13 | -0.1% | ? | 15% | 19 | -1 | 2% | -4
Cn1c(NC(=O)C[n+]2cc(-c3ccc(Cl)c(Cl)c3)n3c2CCC3)cc(=O)n(C)c1=O | 0% | -2% | 16 | -1.0% | 2% | 1% | -3 | 3 | 3% | -2
COC(=O)Cc1c(C)c2ccc(OC(=O)c3ccccc3)cc2oc1=O | -5% | -4% | 2 | 0.4% | 1% | 1% | 5 | 0 | · | -1
COc1ccc(-c2cc(OC)c3ccccc3n2)cc1 | 0% | 2% | 15 | 0.1% | 2% | 0% | -18 | -3 | 0% | 4
COc1ccc(Cc2nc3ccc(C(=O)NCCCSC)cc3o2)cc1OC | ? | 0% | -1 | 0.4% | -1% | ? | -11 | 3 | 14% | 5
N[C@@H](Cc1ccc(O)cc1)c1nnc([C@H](CC(=O)O)NC(=O)C2CCNCC2)o1 | -2% | 1% | -9 | -1.4% | 0% | 9% | 7 | 0 | 9% | -8
CC(NS(=O)(=O)c1ccc2c(c1)CC(C)N2C(=O)C1CC1)c1ccccc1 (stereo not given) | 1% | 6% | 0 | 0.0% | 2% | 10% | 20 | 2 | 3% | 0
O=C(CCC1N=C2c3ccccc3N=C(SCC(=O)NCc3ccco3)N2C1=O)NCc1ccco1 (stereo not given) | 16% | 0% | -12 | -0.1% | 2% | 3% | 6 | 7 | -2% | 11
O=C(Nc1ccccn1)c1ccc(=O)[nH]n1 | ? | -1% | -12 | -0.8% | 3% | -3% | · | 1 | 2% | -16
COc1ccc(CC2(CO)CCN(Cc3ccc4c(c3)CCO4)CC2)cc1 | 5% | 0% | -154* | 4.1% | 0% | -5% | -181* | 0 | -4% | 12
COc1ccccc1CN(Cc1nc2ccccc2c(=O)[nH]1)S(=O)(=O)c1ccc(C)cc1 | ? | -1% | 13 | 0.3% | 2% | 3% | -4 | -3 | 17% | 36[activator]
CCOc1cc(N2CCOCC2)c(OCC)cc1NC(=O)COC(=O)CCc1c[nH]c2ccccc12 | -10% | -1% | 6 | -0.1% | 2% | -31% | -7 | -17 | 6% | -7

Screens from PubChem BioAssay.

These rows are one share of the data, so the mix of outcomes need not match the whole.
